MT stabilizer: microtubule stabilizers in HeLa cells, primary screen, imaging, high-content imaging. HeLa tubulin immunostaining HCS, 24 h; share of cells brighter than vehicle mean+2SD. AID 2205, 2009. 200,000 tested, 0.83% active. % tubulin-high responders, % at 10 µM;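 active = plate Z-score above 3 for both tubulin-high and condensed-nucleus cell shares, with cell loss under 80%, at 10 µM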;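 note: anti alpha tubulin signal scored within the nucleus-defined area of each cell; some results filed as inactive read as strong as hits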
Insulin prom up: insulin promoter activators in MIN6 cells, imaging, high-content screening, mouse beta cells | AID 1625, 2009 | z-score at 5 µM | MIN6 insulin promoter-GFP reporter; stronger effect = higher value | 190,000 tested, 0.3% active;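 active = z-score above 3 at 5 µM with at least 500 cells counted in the well; inconclusive = wells under 500 cells, flagged as cytotoxic or low count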
Autophagy mod: autophagy modulators in MEF cells, primary screen, imaging, high-content, MEF GFP-LC3; MEF GFP-LC3 puncta imaging; test concentration mostly 10 µM; calls only at 10 µM (by protocol); 190,000 tested, 0.98% active; AID 463193, 2010;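 active = percentage of spot-positive cells more than 3 SD above its plate mean, without a fluorescence outlier flag or 80% toxicity; inconclusive = no clear call, values can overlap the other calls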;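 note: spot-positive cell cutoff set from DMSO-treated cells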
Yfh1-depleted yeast: enhancers of respiration in Yfh1-depleted yeast, dose response, Friedreich's ataxia, plus single-dose screen (AID 1465); one-dose fold induction at 50 µM; EC50 in µM for titrated hits; 220,000 tested, 0.074% active; S. cerevisiae Yfh1-off respiration, WST-1 reduction, 72 h; higher fold induction means a stronger effect;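 active = fold induction of absorbance versus untreated yeast above a set limit, then at least 30% activation at any dose in follow-up; inconclusive = repeats straddling the limit, or above it without dose testing; inactive = fold induction below the set limit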;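 note: activators that raise dye reduction in frataxin-depleted yeast; strong numbers were not always called active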
bCat nuc transl: modulators of beta-catenin nuclear translocation, primary screen, imaging, HeLa cells, immunofluorescence, high-content; nuclear translocation activity, % at 5 µM; 190,000 tested, 0.3% active; AID 1665, 2009;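 active = nuclear translocation activity above 50% at 5 µM, with a well cell count of 50 or more; inconclusive = wells under 50 cells across six images, flagged as toxic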;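 note: per-cell ratio of nuclear to cytoplasmic median beta-catenin stain intensity; plate controls were DMSO negative control for no effect and GSK-3 inhibitor IX positive control for full effect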
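Test system: human HeLa cells, endogenous beta-catenin. Times: 24 h compound exposure, 37°C. Measured by: beta-catenin immunofluorescence imaging with DAPI.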
Lipid droplet: inhibitors of hepatocyte lipid droplet formation, primary screen, imaging, high-throughput imaging, BODIPY stain. inhibition, % at 6.5 µM. AID 1656, 2009. 240,000 tested, 0.4% active. AML12 mouse hepatocytes, oleate lipid droplets;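 active = lipid droplet intensity inhibited by at least 50%, with more than 500 cells counted; inconclusive = wells with under 300 cells, treated as cytotoxic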
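Material – AML12 mouse liver cells · Also added – oleate loading, 100 µM · Compound dosing – 6.5 µM single-point dosing · Times – overnight treatment with compound plus oleate · Measured by – fluorescence imaging, 20x objective, two fields per well · Read-out – percent inhibition of filter-corrected integrated lipid droplet intensity per well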
Dynein cargo inh: inhibitors of GR-EGFP nuclear translocation, primary screen, dynein cargo transport inhibitor project, imaging, high-content, 3617.4 mouse cells. test concentration mostly 20 µM; stimulated with dexamethasone, 1 µM; stronger effect = lower value. z-score, hits read low. 220,000 tested, 0.47% active. AID 1381, 2008;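 active = plate z-score of nuclear minus cytoplasmic receptor signal below a set negative limit, without overly bright fluorescence or cell loss, cut at about -3.5 in these data, passing the limit was not always enough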;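 note: z-score of nuclear minus cytoplasmic ring GR-EGFP intensity difference per well; some compounds called inactive have numbers as strong as hits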
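Buffer or medium – tet-free medium with charcoal-stripped serum · Signal – automated 10x imaging of fixed Hoechst-stained cells · Also added – dexamethasone agonist, 1.0 µM final, for 30 min · Incubation – induction 48 h, compound 1 h, agonist 30 min · Read-out – GR-EGFP nuclear translocation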
WT yeast gro inh: growth inhibition of WT strain, primary screen, mitochondrial fusion inhibitor project, WT and mutant strains, chemical genetic | mitochondrial fusion phenotypic screen | inhibition, % at 10 µM | 190,000 tested, 2.1% active; in the data active = inhibition above about 58%; tested in S. cerevisiae
WT yeast gro inh mutant strain: further read-out of WT yeast gro inh, marked with its call; inhibition, %; mitochondrial fusion phenotypic screen, mutant strain inhibition
Dynein cargo inh cytoplasmic EGFP: also measured in Dynein cargo inh; calls as there; z-score; measured here: cytoplasmic GR-EGFP intensity; stronger effect = higher value
Dynein cargo inh nuclear GR-EGFP: also measured in Dynein cargo inh; calls as there; z-score; measured here: nuclear GR-EGFP intensity;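 lower value marks the stronger effect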
Dynein cargo inh cell count: further read-out of Dynein cargo inh, marked with its call; z-score; measured here: cell count per field
Insulin prom up cell count: second read-out of Insulin prom up, no call of its own (marks repeat the call); cell count; measured here: cytotoxicity, nuclei count;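 total cells summed across four imaged fields per well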
Lipid droplet cells 6.5 µM: further read-out of Lipid droplet, marked with its call; cell count; measured here: cell count, cytotoxicity flag;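 cells counted across two imaged fields per well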
bCat nuc transl cell count 5 µM: further read-out of bCat nuc transl, marked with its call; cell count; measured here: cell count, cytotoxicity flag
MT stabilizer Hoechst-high %: further read-out of MT stabilizer, marked with its call; % Hoechst-high responders; measured here: nuclear condensation Hoechst responders;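 share of cells brighter than vehicle mean plus two SD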
MT stabilizer cytotoxicity %: also measured in MT stabilizer; calls as there; toxicity, %; measured here: cytotoxicity by cell density;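 0% = mean cell density of plate MIN control wells and 100% = no cells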
Autophagy mod cell loss 18 h: further read-out of Autophagy mod, marked with its call; toxicity, %; measured here: cell loss, nuclei count;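 cell loss after 18 h compound exposure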
* hit, by the source's call; i = inactive; ? = inconclusive; nt = not tested or not shown. Some of the compounds tested, so the mix of outcomes need not match the whole.

SMILES | MT stabilizer | MT stabilizer Hoechst-high % | MT stabilizer cytotoxicity % | Insulin prom up | Insulin prom up cell count | Autophagy mod | Autophagy mod cell loss 18 h | Yfh1-depleted yeast | bCat nuc transl | bCat nuc transl cell count 5 µM | Lipid droplet | Lipid droplet cells 6.5 µM | Dynein cargo inh | Dynein cargo inh cytoplasmic EGFP | Dynein cargo inh nuclear GR-EGFP | Dynein cargo inh cell count | WT yeast gro inh | WT yeast gro inh mutant strain
COc1ccc(C(=O)/C(C#N)=N/Nc2cccc([N+](=O)[O-])c2)cc1 | 11.0 | 3.8 | 51.5 | -1.39 | 1062 | i | 15.8 | i | 29.6 | 514 | -7.0 | 674 | 1.56 | -0.316 | 0.788 | -2.2 | 22.4 | 9.3
CC(C)C(=O)N1CCN(c2ccc(NC(=O)c3ccc4c(c3)OCCO4)cc2Cl)CC1 | 1.6 | 0.9 | 19.5 | -0.5 | 793 | i | 0.4 | i | nt | nt | 12.4 | 789 | -0.73 | 0.866 | -0.436 | 0.732 | 43.3 | 35.7
CC(C)CC[n+]1ccccc1/C=C/c1ccc(N(C)C)cc1 | nt | nt | nt | nt | nt | nt | nt | nt | nt | nt | -145.5 | 650 | nt | nt | nt | nt | nt | nt
C=CCn1c(Oc2ccc(C(=O)OC)cc2)nc2c1c(=O)n(C)c(=O)n2C | 1.6 | 1.3 | 5.0 | -0.63 | 1468 | i | -1.3 | i | -0.4 | 1361 | nt | nt | -0.041 | -0.159 | -0.0975 | -0.244 | 8.0 | -0.6
COc1cccc(Nc2nc(NCCO)c3ccccc3n2)c1 | 1.5 | 1.7 | 5.7 | nt | nt | i | 2.7 | i | 7.3 | 1121 | -12.7 | 767 | -0.0218 | -0.263 | 0.0431 | 0.512 | 60.4* | 54.9*
Cc1ccc(-c2csc(=Nc3cccnc3)n2CCCn2ccnc2)cc1C | 2.1 | 2.0 | 3.0 | -3.01 | 528 | i | 7.1 | i | -0.5 | 889 | -11.6 | 649 | 0.251 | -0.281 | 0.00332 | -0.372 | 3.4 | -7.7
O=C(COC(=O)c1ccccc1C(=O)c1ccc(Cl)c([N+](=O)[O-])c1)NC1CC1 | 3.8 | 3.2 | 2.9 | -2.58 | 827 | i | -1.3 | i | -0.7 | 1035 | 5.8 | 721 | -1.85 | 0.357 | -0.94 | 0.588 | -10.8 | -18.4
O=[N+]([O-])c1ccc(O)c(-c2cc(C(F)(F)F)nc(-c3ccccc3)n2)c1 | nt | nt | nt | nt | nt | nt | nt | nt | nt | nt | -22.7 | 818 | nt | nt | nt | nt | nt | nt
O=C(NCCCSc1ccccc1)c1cc(Br)ccc1O | nt | nt | nt | nt | nt | nt | nt | nt | nt | nt | -5.6 | 656 | nt | nt | nt | nt | nt | nt
COc1ccc(Cc2nc3ccc(C(=O)N4CCN(C)C(C)C4)cc3o2)cc1OC (stereo not drawn) | nt | nt | nt | nt | nt | nt | nt | nt | nt | nt | -0.4 | 673 | nt | nt | nt | nt | nt | nt
C/C(=N\Nc1nc2ccccc2[nH]1)c1ccccn1 | nt | nt | nt | nt | nt | nt | nt | nt | nt | nt | -191.0 | 497 | nt | nt | nt | nt | nt | nt
C/C(=N\NC(=O)c1ccccc1Cl)c1ccccn1 | nt | nt | nt | nt | nt | nt | nt | nt | nt | nt | -135.7 | 614 | nt | nt | nt | nt | nt | nt
O=[N+]([O-])c1ccc(O)c(/C=N/NC(=S)Nc2ccc(Cl)cc2Cl)c1 | nt | nt | nt | 0.94 | 957 | nt | nt | i | -0.7 | 1321 | -32.8 | 739 | 1.51 | 0.0429 | 2.03 | -2.51 | nt | nt
COc1ccc(-c2cc(=O)oc3cc(OC(=O)C4CCCCC4)c(Cl)cc23)cc1 | 2.5 | 2.4 | 1.4 | 0.59 | 1250 | i | 7.3 | i | -0.9 | 1067 | 12.0 | 645 | -0.557 | -0.244 | 0.013 | 1.35 | 5.5 | -11.5
COc1cccc2sc(Nc3nc(-c4ccccn4)cs3)nc12 | 23.7 | 3.4 | 39.7 | ? | nt | i | 63.5 | i | 33.6 | 996 | nt | nt | -0.374 | -0.126 | -0.242 | 0.905 | 63.0* | 57.5*
Cc1ccc2nc(-c3ccc4c(c3)OCCO4)cn2c1 | nt | nt | nt | 0.1 | 645 | nt | nt | i | 56.2* | 448* | 7.6 | 784 | -0.353 | -0.206 | -0.141 | 0.488 | nt | nt
Cc1ccc(C(=O)NC(=C(Cl)Cl)S(=O)(=O)c2ccccc2)cc1 | 8.0 | 2.0 | 0.1 | 0.07 | 1448 | i | 2.6 | i | 3.1 | 1005 | -25.4 | 606 | -3.17 | 0.447 | -1.84 | -1.07 | -18.0 | -16.3
CCCN(CCC)S(=O)(=O)c1ccc(C(=O)Nc2nnc(-c3cc(OC)cc(OC)c3)o2)cc1 | 5.3 | 0.5 | 9.2 | -4.56 | 900 | i | 18.9 | nt | nt | nt | 11.5 | 758 | -0.418 | -0.221 | 0.0248 | 0.994 | 0.0 | -1.9
CC(C)C(=O)NC(c1cccs1)c1cc([N+](=O)[O-])c2cccnc2c1O (stereo not drawn) | 3.3 | 0.7 | 6.3 | 0.16 | 1579 | i | 18.1 | nt | -2.2 | 1116 | -20.3 | 659 | 0.331 | -0.154 | -0.0259 | -0.158 | 10.4 | 15.4
COc1ccc(C(=O)Nc2ccc(-c3ccc(C)o3)cc2)cc1S(=O)(=O)N1CCOCC1 | 11.5 | 2.6 | 14.7 | -1.54 | 1204 | i | -0.2 | i | -4.8 | 1322 | -0.1 | 771 | -0.0257 | -0.215 | -0.0845 | -0.282 | 4.4 | -5.2
COc1ccc(NS(=O)(=O)c2ccc3oc(SC(C)C(N)=O)nc3c2)cc1 (stereo not drawn) | nt | nt | nt | nt | nt | nt | nt | nt | nt | nt | -36.8 | 627 | nt | nt | nt | nt | nt | nt
CCN(Cc1ccccc1)S(=O)(=O)c1ccc(C(=O)Nc2nnc(C3CC3)o2)cc1 | 2.9 | 3.5 | 4.2 | 1.01 | 1011 | i | -41.4 | i | -1.3 | 1114 | nt | nt | 0.35 | -0.225 | 0.321 | 0.309 | 47.9 | 44.1
CN(CC1CCCO1)S(=O)(=O)c1ccc(C(=O)Nc2nc3cc4c(cc3s2)OCO4)cc1 (stereo not drawn) | 8.5 | 1.5 | 5.8 | nt | nt | i | 12.6 | nt | nt | nt | -12.6 | 746 | 0.139 | -0.225 | 0.265 | -0.148 | 7.0 | -8.2
CN(C)S(=O)(=O)Oc1ccc(C(=O)Nc2cccc(C(F)(F)F)c2)cc1 | 3.1 | 2.6 | 11.6 | 0.18 | 1265 | i | 7.9 | i | -4.3 | 1158 | -12.3 | 671 | 0.121 | -0.389 | 0.357 | 0.782 | -4.4 | 6.2
Cn1c(=O)[nH]c(=O)c2c1nc(N1CCC(Cc3ccccc3)CC1)n2Cc1ccccc1 | 2.0 | 2.5 | 6.0 | 0.68 | 915 | i | 4.7 | i | nt | nt | nt | nt | 1.86 | -0.0809 | 1.24 | -1.44 | 16.9 | -9.8
O=C(Sc1cccc2cccnc12)c1ccccc1Br | nt | nt | nt | nt | nt | nt | nt | nt | nt | nt | -122.2 | 478 | nt | nt | nt | nt | nt | nt
O=C(COc1ccccc1)Nc1cccc(-c2nc3cc4ccccc4cc3[nH]2)c1 | 2.4 | 1.9 | 6.2 | -0.29 | 1540 | i | 6.5 | i | 0.3 | 1298 | nt | nt | 1.79 | -0.148 | 0.547 | -0.113 | 75.0 | 77.6
O=C(N/N=C/c1c(O)ccc2ccccc12)c1ccc(CO)nc1 | nt | nt | nt | nt | nt | nt | nt | nt | nt | nt | -32.3 | 721 | nt | nt | nt | nt | nt | nt

Part of the list above, reformatted:
| Compound | MT stabilizer | MT stabilizer Hoechst-high % | MT stabilizer cytotoxicity % | Insulin prom up | Insulin prom up cell count | Autophagy mod | Autophagy mod cell loss 18 h | Yfh1-depleted yeast | bCat nuc transl | bCat nuc transl cell count 5 µM | Lipid droplet | Lipid droplet cells 6.5 µM | Dynein cargo inh | Dynein cargo inh cytoplasmic EGFP | Dynein cargo inh nuclear GR-EGFP | Dynein cargo inh cell count | WT yeast gro inh | WT yeast gro inh mutant strain |
| --- | --- | --- | --- | --- | --- | --- | --- | --- | --- | --- | --- | --- | --- | --- | --- | --- | --- | --- |
| CN(C)S(=O)(=O)Oc1ccc(C(=O)Nc2cccc(C(F)(F)F)c2)cc1 | 3.1 | 2.6 | 11.6 | 0.18 | 1265 | i | 7.9 | i | -4.3 | 1158 | -12.3 | 671 | 0.121 | -0.389 | 0.357 | 0.782 | -4.4 | 6.2 |
| Cn1c(=O)[nH]c(=O)c2c1nc(N1CCC(Cc3ccccc3)CC1)n2Cc1ccccc1 | 2.0 | 2.5 | 6.0 | 0.68 | 915 | i | 4.7 | i | nt | nt | nt | nt | 1.86 | -0.0809 | 1.24 | -1.44 | 16.9 | -9.8 |
| O=C(Sc1cccc2cccnc12)c1ccccc1Br | nt | nt | nt | nt | nt | nt | nt | nt | nt | nt | -122.2 | 478 | nt | nt | nt | nt | nt | nt |
| O=C(COc1ccccc1)Nc1cccc(-c2nc3cc4ccccc4cc3[nH]2)c1 | 2.4 | 1.9 | 6.2 | -0.29 | 1540 | i | 6.5 | i | 0.3 | 1298 | nt | nt | 1.79 | -0.148 | 0.547 | -0.113 | 75.0 | 77.6 |

From PubChem BioAssay
